Ecoli growth: inhibitors of Escherichia coli growth. OD600, 23 h; hits give low values. OD600 absorbance (no concentration beside the values). 0.21% of 330,000 active. AID 1053175;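 active = OD600 absorbance below the run mean of sample wells minus 3.6 SD, in any replicate, cut at about 0.56 in these data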;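 also: stock transfer was 300 nL into about 60 µL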
Vif TR-FRET: inhibitors of Vif binding to APOBEC3G peptide, primary screen, biochemical, TR-FRET, GST-Vif 1-94, biotin-A3G peptide, dose response retest (AID 1117319); TR-FRET GST-Vif / biotin-A3G peptide binding; higher % means a stronger effect; test concentration not given here; strong numbers were not always called active; 0.57% of 260,000 active; inhibition, %, or IC50 in µM where a hit was titrated;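 active = above the screen mean plus three standard deviations and confirmed in dose response; inconclusive = results disagree or hit not tested in dose response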;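 also: Vif residues 1-94 fused to GST binding biotinylated APOBEC3G peptide 110-148; 0% = full assay without inhibitor and 100% = GST in place of GST-Vif; retest series ran down from 100 µM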
AF4-AF9 inh: MLL-AF4/AF9 protein interaction inhibition; 0.47% of 350,000 active; AlphaScreen, biotin-AF4 peptide binding to FLAG-AF9; inhibition, % at 10 µM; AID 651704;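 active = every replicate reaching a set inhibition limit, whatever the replicate mean, cut at about 25% in these data; inconclusive = mean inhibition reaches that limit but some replicates miss it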;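 also: 0% = plate neutral control median and 100% = total signal loss; the record names both 10 and 1 µM as test concentration; the first replicate is given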
Target sequence (P42568 whole entry, looked up): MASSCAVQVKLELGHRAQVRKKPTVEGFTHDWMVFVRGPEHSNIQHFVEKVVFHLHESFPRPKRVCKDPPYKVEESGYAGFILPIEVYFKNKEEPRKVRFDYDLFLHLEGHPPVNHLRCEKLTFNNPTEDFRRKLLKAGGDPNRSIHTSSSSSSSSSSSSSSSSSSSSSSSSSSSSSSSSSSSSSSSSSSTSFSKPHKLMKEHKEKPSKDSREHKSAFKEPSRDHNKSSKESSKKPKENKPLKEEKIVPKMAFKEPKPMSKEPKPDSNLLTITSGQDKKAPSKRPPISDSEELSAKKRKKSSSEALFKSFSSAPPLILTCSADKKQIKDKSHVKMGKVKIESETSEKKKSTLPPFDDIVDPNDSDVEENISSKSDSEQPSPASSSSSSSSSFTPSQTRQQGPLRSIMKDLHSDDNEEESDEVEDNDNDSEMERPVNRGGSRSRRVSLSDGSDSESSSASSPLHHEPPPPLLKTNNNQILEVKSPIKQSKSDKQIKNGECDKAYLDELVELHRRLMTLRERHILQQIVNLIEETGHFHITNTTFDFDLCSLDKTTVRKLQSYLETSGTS
ALR inh: inhibitors of human sulfhydryl oxidase ALR; 3.8% of 290,000 active; purified ALR, DTT oxidation, H2O2 HRP-luminol luminescence; AID 485317; inhibition, % (concentration not given with the values);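 active = mean and each replicate at 75% or more; inconclusive = only one of the two met; inactive = neither met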;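 also: stock transfer was 7.5 nL into about 7.5 µL; 0% = neutral wells and 100% = wells with inactivated enzyme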
Target sequence (P55789 whole entry, looked up): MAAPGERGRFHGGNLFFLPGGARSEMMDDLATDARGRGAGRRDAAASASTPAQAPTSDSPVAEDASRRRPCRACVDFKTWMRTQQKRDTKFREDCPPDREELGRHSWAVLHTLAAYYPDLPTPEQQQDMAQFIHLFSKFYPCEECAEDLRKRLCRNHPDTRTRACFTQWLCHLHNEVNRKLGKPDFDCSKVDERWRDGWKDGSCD
FGF22 binding: binders of recombinant human FGF22 by thermal shift. Q9HCT0. SYPRO orange fluorescence; percent of sucrose octasulfate shift, DMSO zero. calls only at 9.99 µM. 1.5% of 340,000 active. AID 651658;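 active = melting point raised past a set limit in the mean and every replicate; inconclusive = no clear call; three in four hits are not shown here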
Target sequence (Q9HCT0 whole entry, looked up): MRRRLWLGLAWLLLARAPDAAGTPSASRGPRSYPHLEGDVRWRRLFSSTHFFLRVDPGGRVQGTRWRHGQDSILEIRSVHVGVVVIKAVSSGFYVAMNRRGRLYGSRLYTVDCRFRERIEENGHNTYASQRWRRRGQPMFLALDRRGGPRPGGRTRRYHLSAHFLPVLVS
Ecoli rRNA inh: inhibitors of bacterial rRNA selective over humanized ribosomes | GFP signal change (wild-type ribosome), % (test concentration not listed) | E. coli WT GFP vs humanized-ribosome RFP mutants, fluorescence, 24 h; hits give low values; DMSO median 0, no signal -100 | AID 720706 | 1.6% of 350,000 active;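 active = significant combined selectivity score with lowered wild-type GFP, culture density cut under 30%, mutant RFP and density less affected; inactive = any of these conditions unmet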; also: one replicate is shown; some compounds called inactive have numbers as strong as hits
HNF4A DNA FP: change in binding of human HNF4 alpha to DNA; P41235; HNF4a-FITC DNA binding, fluorescence polarization, 1 h; activity change, % at 10 µM; 0.3% of 360,000 active; AID 1224865; in the data active = activity change above about 30%, passing the limit was not always enough;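 also: controls were the assay level and a saturating level of protein; the project sought stronger binding though the title names inhibitors; some compounds called inactive have numbers as strong as hits; positive values seem to mean higher polarization but the record does not say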
Ecoli rRNA inh OD600: also measured in Ecoli rRNA inh; calls as there; OD600 change, %; measured here: OD600 growth;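 optical density of the mix in the first replicate; 0 = DMSO median and -100 = no signal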
Ecoli rRNA inh RFP: recorded beside Ecoli rRNA inh, whose call it bears; RFP signal change, %; measured here: RFP humanized mutant strains;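 first replicate; 0 = DMSO median and -100 = no signal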
* marks the source's active call; other numbers are inactive results; i = inactive; u = inconclusive; x = no result given. The list is partial, so the mix of outcomes need not match the whole.

SMILES	Ecoli growth	Vif TR-FRET	AF4-AF9 inh	ALR inh	FGF22 binding	Ecoli rRNA inh	Ecoli rRNA inh OD600	Ecoli rRNA inh RFP	HNF4A DNA FP
CCC(C)(C)n1nnnc1C(c1ccc(OC)c(OC)c1)N1CCN(C(=O)c2ccco2)CC1 (stereo not drawn)	0.66	-1%	-3.7	x	i	-1	9	0.2	0.6
CCCCNC(=S)N1CCN(c2ccc(C(C)=O)cc2)CC1	0.65	4%	3.1	-4	i	-22*	-17*	9.3*	-1.2
CN(C)c1cccc(NC(=O)c2cccc3ccccc23)c1	0.68	-18%	12	-1	i	5	5	2.6	4.4
COc1c(C(=O)Nc2ccccc2N2CCOCC2)cc2ccccc2c1Br	0.7	x	-2.0	x	i	2	-24	-1.4	-4.0
O=C(O)Cc1n[nH]c(=O)c2ccccc12	0.68	-8%	x	-2	x	x	x	x	3.5
O=C1NCCCC1C(=O)N1CCN(C(c2ccccc2)c2ccccc2)CC1 (stereo not drawn)	0.66	-2%	-39	-2	i	0	-6	4.0	-1.3
S=c1[nH]nc(-c2ccc(Cl)cc2Cl)n1-c1ccccc1	0.67	3%	-4.8	49	i	-29	-55	0.2	2.8
CCC(=O)Nc1ccc2c(c1)OC[C@@H](C)N(Cc1ccccn1)C[C@@H](C)[C@@H](OC)CN(C)C2=O	x	x	-1.0	x	i	1	-2	0.0	x
CCC(C)(C)C1CCc2[nH]nc(C(=O)NCc3ccc(OC)cc3)c2C1 (stereo not drawn)	0.71	x	-4.4	-8	i	10	11	-1.0	-1.5
CC1(c2nnc(-c3cccc(Cl)c3)o2)CC(c2ccccc2Br)=NO1 (stereo not drawn)	0.7	x	0.3	1	i	-18	-14	-7.8	3.1
CC(C)(C)C1=NN(c2ccc([N+](=O)[O-])cc2)C(c2ccccc2)C1 (stereo not drawn)	0.72	13%	9.9	u	i	-2	1	-3.1	0.0
CC1(C)Oc2ccc3ccc(=O)oc3c2/C(=C/NNC(N)=O)C1=O	0.69	8%	12	64	i	-10	-13	-1.3	-1.1
FC(F)(F)c1cc(-c2ccccc2)nc(N2CCOCC2)n1	0.74	6%	x	-19	x	x	x	x	-1.6
Cc1ccc(S(=O)(=O)N2CCOCC2)cc1NC(=O)CSc1ncccn1	0.69	8%	3.6	-2	i	12	10	1.5	-1.5
Cc1noc(C)c1NC(=O)Nc1cccc2c1O[C@H](CN(C)Cc1ccc(Cl)c(Cl)c1)[C@H](C)CN([C@H](C)CO)C2=O	x	x	-5.6	x	i	-2	-4	-0.5	x
O=C(NCCNC(=O)c1ccccc1F)c1ccco1	0.69	x	0.5	-7	i	12	19	-1.0	0.2
CCC(=O)N1CCc2cc(S(=O)(=O)CCC(=O)NCCc3ccccc3)ccc21	0.74	15%	x	3	x	x	x	x	-0.8
O=C(C[C@@H]1CC[C@H]2[C@@H](COC[C@@H](O)CN2S(=O)(=O)c2cccc(Cl)c2)O1)N1CCCCC1	x	x	-3.4	x	i	0	-10	-5.9	x
O=C(CSc1nnc2ccc(-c3ccccn3)nn12)NCCc1ccccc1	0.65	6%	13	-13	i	17	19	-0.1	4.6
Cc1ccc(NC(=O)CSc2nc3ncc(Br)cc3[nH]2)cc1C	0.68	-79%	-25	-1	i	-3	-6	-1.2	-0.1
O=C(COc1ccccc1-c1ccccc1)N/N=C/c1ccc2ccccc2c1	x	3%	-3.6	-15	i	4	4	5.9	1.1
Cn1cc(CN2CCN(Cc3cccnc3)CC2)c(-c2ccc3c(c2)OCCO3)n1	0.7	0%	0.2	-9	x	9	6	-1.0	-0.3
O=C1NC[C@H](CCCCN2C[C@H](Cc3ccccc3)N(CC3CCCCC3)C(=O)C2=O)N(CCc2ccccc2)C1=O	x	x	-1.6	x	i	7	7	-0.9	-6.0
CC(Oc1ccc2ccc(=O)oc2c1)C(=O)NCCCn1ccnc1 (stereo not drawn)	0.64	-11%	-9.0	2	i	6	11	-1.6	-0.1
CCOC(=O)[C@@H]1[C@H]2COc3ccc(Br)cc3[C@H]2N2C(=O)N(c3ccc(Br)cc3)C(=O)[C@]12C	x	x	-2.3	-6	i	8	-2	-2.8	1.2
Cc1c(N2C(=O)c3cccc4cccc(c34)C2=O)cnn1C	0.62	30%	-7.9	-44	i	-7	-14	-3.2	-0.8
COc1ccc(N(CC(=O)N2CCN(c3ccc(F)cc3)CC2)S(=O)(=O)c2c(C)n[nH]c2C)cc1	0.64	-1%	1.6	33	i	-17	-21	-3.8	3.3
COC(=O)c1cc(C)sc1NC(=O)CCc1ccccc1	0.65	x	0.5	-10	i	-26	-27	-6.8	6.0
C/C(=N/NC(=O)CNC(=O)c1ccc2c(c1)OCO2)c1ccc2c(c1)CCCC2	x	12%	1.9	3	i	5	7	0.2	-0.5
Cc1cc(C)nc(N2CCCC(C(=O)NC(C)C)C2)n1 (stereo not drawn)	0.7	-6%	-3.4	1	i	1	1	-6.2	1.5
O=C(CCC(=O)OCc1ccc(Cl)cc1)Nc1ccccc1	0.7	4%	-1.5	x	i	10	11	0.7	2.2
O=C(N[C@H]1CC[C@H](CCNS(=O)(=O)c2ccc(Cl)cc2)O[C@@H]1CO)c1ccccn1	x	x	0.8	x	i	-10	-11	3.6	x
O=C(C=Cc1ccccc1)N1CCCCC1	0.66	-7%	-2.4	x	i	5	15	-2.3	5.2
CC(=O)C12CCCCC1CC1C3CC(C)C4(O)CC(=O)CCC4(C)C3CCC12C (stereo not drawn)	0.71	-4%	0.3	3	i	21	17	1.7	-41
Cc1ccc(S(=O)(=O)N(C)C[C@H]2Oc3ccc(NS(=O)(=O)c4ccc(F)cc4)cc3CC(=O)N([C@@H](C)CO)C[C@H]2C)cc1	x	x	-2.1	x	i	1	-14	2.7	x
COc1cc2c(cc1OC)CN(C(=O)c1ccc(N3CCCC3)c([N+](=O)[O-])c1)CC2	0.67	x	0.3	-4	i	-30	-41	-2.2	0.8
Cc1cc2nc(CCN(C(=S)NCC3CCCO3)C3CCCC3)[nH]c2cc1C (stereo not drawn)	x	-8%	6.0	x	i	-48	-74	-9.3	3.5
CC(C)c1ccc(NC(=S)NN2CCOCC2)cc1	0.73	x	1.1	26	i	-8	-5	-12	-5.1
O=C(CN1C(=O)NC2(CCOc3ccccc32)C1=O)N1CCCCC1 (stereo not drawn)	0.63	x	u	5	i	6	6	0.7	-1.9
O=C1[C@@H](c2ccccc2)[C@@H](c2ccccc2)N1c1cccnc1	0.55	7%	-1.2	x	i	-45	-49	-13	0.3
CCOC(=O)c1c(N)nn(C(C)=O)c1-c1ccccc1	0.71	7%	x	-7	x	x	x	x	1.7
Cc1ccc(S(=O)(=O)NCC(=O)NCC(=O)OCC(=O)N2CC(=O)Nc3ccccc32)cc1C	0.66	5%	1.1	-5	x	16	7	1.7	-1.7
CCC(=O)N1[C@@H]2Cn3c(cccc3=O)[C@H]1[C@@H](C(=O)NCc1ccccc1)[C@@H]2CO	x	x	-0.7	x	i	2	5	-3.8	x
CC1(C(=O)NS(=O)(=O)c2ccccc2Cl)CCN1C(=O)c1ccco1 (stereo not drawn)	x	x	1.2	x	i	9	17	0.7	2.1
CCOC(=O)c1nn(-c2ccccc2)c(=O)cc1SC1CCCCC1	0.68	4%	-1.2	-12	i	15	28	3.1	-3.5
CC1CCCCC1NC(=O)CN1C(=O)c2cccc(N)c2C1=O (stereo not drawn)	0.72	-2%	0.5	x	i	17	12	3.3	-15
Cc1cc(C)cc(OCC(=O)NCc2nc(-c3ccccc3)no2)c1	0.67	2%	8.8	13	i	13	6	4.4	0.1
CC(=O)NC1C(=O)N(CCc2ccccc2)c2ccc(Br)cc21 (stereo not drawn)	x	6%	0.8	x	i	15	9	-3.1	-3.6
Cc1ccccc1CC1(CO)CCCN(Cc2cn[nH]c2-c2ccccc2)C1 (stereo not drawn)	0.67	-8%	-4.7	x	i	-5	-6	-16	1.8
C[C@@H]1CCCCO[C@@H](CN(C)Cc2ccc(C(=O)O)cc2)[C@@H](C)CN([C@H](C)CO)C(=O)c2cc(NC(=O)Nc3cccc4ccccc34)ccc2O1	x	x	-1.6	x	i	2	-5	-0.9	x
O=C(c1ccccc1)N1CC(=O)N2[C@H](C1)[C@H](c1ccc(C#CC3CC3)cc1)[C@@H]2CO	x	x	4.6	x	i	0	0	1.8	x
CCOC(=O)C1CCN(Cc2cnc(NC(=O)OC)s2)CC1	0.66	3%	x	-30	x	x	x	x	2.0
CCOC(=O)N1CCN(CC(O)COc2c(OC)cccc2OC)CC1 (stereo not drawn)	0.77	4%	x	-10	x	x	x	x	0.4
CCOC(=O)N1CCN(C(=O)COc2ccc3c(c2)C(=O)CC2(CCN(C(C)=O)CC2)O3)CC1	0.64	17%	x	-4	x	x	x	x	-0.9
Cc1noc(C)c1NC(=O)NCC[C@@H]1CC[C@H](NC(=O)Nc2cccc(F)c2)[C@@H](CO)O1	x	x	6.8	x	i	3	1	1.9	x
O=C(CNC(=O)c1cccc(F)c1)OCc1cc(=O)n2cc(Br)ccc2n1	0.7	-28%	-4.1	0	i	25	5	1.1	-2.2
N#CCC(=O)N/N=C/c1ccc(OCC(=O)Nc2ccc(F)cc2)cc1	x	3%	-4.6	-10	i	14	22	6.6	2.6
COc1ccc(C(C#N)=Cc2ccc(N(C)CCC#N)cc2)cc1	x	-8%	6.6	x	i	2	-10	31	10
Cc1cc(=O)oc2cc(OCC(=O)OCC(=O)Nc3ccccc3C(C)C)ccc12	0.68	0%	-2.5	-3	i	3	12	-4.8	-1.2
C[C@@H]1CN([C@H](C)CO)C(=O)c2cc(NC(=O)NC3CCCCC3)ccc2O[C@@H](C)CCCCO[C@@H]1CN(C)Cc1ccc(C(=O)O)cc1	x	x	-1.8	x	i	0	1	-3.0	x

Results in Ecoli rRNA inh OD600, HNF4A DNA FP and Ecoli rRNA inh (2 entries from above):
Molecule	Ecoli rRNA inh OD600	HNF4A DNA FP	Ecoli rRNA inh
Cc1cc(=O)oc2cc(OCC(=O)OCC(=O)Nc3ccccc3C(C)C)ccc12	12	-1.2	3
C[C@@H]1CN([C@H](C)CO)C(=O)c2cc(NC(=O)NC3CCCCC3)ccc2O[C@@H](C)CCCCO[C@@H]1CN(C)Cc1ccc(C(=O)O)cc1	1	x	0

Back to the main list, starting 2 compounds before the break.
SMILES	Ecoli growth	Vif TR-FRET	AF4-AF9 inh	ALR inh	FGF22 binding	Ecoli rRNA inh	Ecoli rRNA inh OD600	Ecoli rRNA inh RFP	HNF4A DNA FP
Cc1cc(=O)oc2cc(OCC(=O)OCC(=O)Nc3ccccc3C(C)C)ccc12	0.68	0%	-2.5	-3	i	3	12	-4.8	-1.2
C[C@@H]1CN([C@H](C)CO)C(=O)c2cc(NC(=O)NC3CCCCC3)ccc2O[C@@H](C)CCCCO[C@@H]1CN(C)Cc1ccc(C(=O)O)cc1	x	x	-1.8	x	i	0	1	-3.0	x
O=C(Nc1ccc(Oc2c(F)c(F)c(F)c(F)c2F)cc1)OC1CCN2Cc3ccccc3N=C12 (stereo not drawn)	x	x	-1.2	-8	x	x	x	x	-1.3
O=C(Nc1sc2c(c1C(=O)NCC(O)CO)CCCC2)c1ccccc1 (stereo not drawn)	0.64	x	x	17	i	-12	-2	2.3	1.2
OCCCn1c(-c2ccccc2)n[nH]c1=S	0.72	4%	x	x	x	x	x	x	-2.3
COCC#Cc1ccc2c(c1)O[C@@H](CN(C)S(=O)(=O)c1cccc(F)c1)[C@@H](C)CN([C@@H](C)CO)S2(=O)=O	x	x	0.9	x	i	-7	-13	1.9	x
Cc1ccccc1-c1ccc2c(c1)O[C@@H](CN(C)C(=O)C1CC1)[C@@H](C)CN([C@@H](C)CO)S2(=O)=O	x	x	-2.2	x	i	-3	-12	0.2	x
